# Calb biofilm kill: mixtures killing C. albicans biofilm; 120,000 tested, 0.02% active; inhibition, % at 7.6 µM; C. albicans biofilm persisters + clotrimazole, fluorescence viability; primary screen in compound mixtures of four per well;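 active means inhibition above 30.3% in the primary screen of four-compound pools, then above 30% when the compound was retested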;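 further: compounds exposed to preformed 24 h biofilms for 48 h; the number belongs to the whole pool; some results filed as inactive read as strong as hits; inactives centre near 12; 0% = biofilm with clotrimazole alone and 100% = kill control; retested singly at about 60 µM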
#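 Incubation: 24 h biofilm formation, then 48 h compound exposure, 37 °C | Material: C. albicans biofilms | Buffer or medium: RPMI/MOPS medium, pH 7.0 | Measured by: 2-h Alamar Blue fluorescence, 535/590 nm excitation/emission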
# Active calls of the source: *; & = joins results of further samples. This is a subset; rates above refer to the full screens.
# Sample of the layout:
SMILES	Calb biofilm kill
Nc1ccc(N2CCOCC2)c2nonc12	-4
COCCn1c(-c2ccc(C#N)cc2)nc2c1c(=O)[nH]c(=O)n2Cc1ccccc1	9

# Results (from the top)
SMILES	Calb biofilm kill
Nc1ccc(N2CCOCC2)c2nonc12	-4
COCCn1c(-c2ccc(C#N)cc2)nc2c1c(=O)[nH]c(=O)n2Cc1ccccc1	9
CCC(C)NS(=O)(=O)c1ccc(NC(=O)C2CCCO2)cc1 (stereo unspecified)	24
COc1ccc(-c2csc(CCn3nc(C)cc3C)n2)cc1	2
O=Cc1cn(CC(O)CN2CCCCC2)c2ccccc12 (stereo unspecified)	-2
O=C(CNC(=O)c1cccc(F)c1)N/N=C/c1cc(Br)ccc1OCc1ccccc1	7
Nc1ccc(S(=O)(=O)Nc2nccc(/C=C/c3ccccc3F)n2)cc1	4
OCC(CO)(CO)NC(=S)Nc1cc(Cl)cc(Cl)c1	15
CCCCNC(=O)CNC(=S)N(Cc1cc(OC)c(OC)c(OC)c1)C1CCCC1	16
O=C(Nc1ccc(F)cc1)Nc1nnc(COc2ccccc2F)s1	0
C/C(=N\Nc1ccc([N+](=O)[O-])cc1)c1ccc2c(c1)OCO2	2
c1ccc(OCCOCCN2CCN(C(c3ccccc3)c3ccccc3)CC2)cc1	15
Nc1nc(CSC(=S)N2CCCCC2)nc(Nc2ccccc2)n1	9
c1ccc(-c2csc(-c3ccncc3)n2)cc1	20
CC(C)(C)NC(=O)CN(C(=O)Cn1nnc(-c2ccc(Cl)cc2)n1)C1CCN(Cc2ccccc2)CC1	11
O=C(CSc1nnc2n1CCCN2)c1ccc(Cl)cc1	16
CC(=O)c1sc(NC(=O)COc2ccc(Cl)cc2C)nc1C	7
O=C(Nc1cccc2ccccc12)N1CCN(c2ncccn2)CC1	14
CCn1c(CNC(=O)c2ccco2)nnc1SCC(=O)c1ccccc1	23
CC(=O)Nc1ccc(NC(=O)COc2ccc3c(c2)CCC3)cc1	10
COc1ccc(CCNC(=O)C(C)c2ccc([N+](=O)[O-])cc2)cc1 (stereo unspecified)	11
CCOC(=O)c1cc(C#N)c(N2CCOCC2)nc1-c1ccccc1	10
Cc1cc2c(n1-c1ccc(C(N)=O)cc1)CC(C)(C)CC2=O	9
COC(=O)c1ccc(C23CC4(C2)[C@H](CN(Cc2ccc(-c5ccccc5)cc2)[C@@H]4c2ccccc2)C3c2ccc(Cl)nc2)cc1 (stereo partly specified)	17
CC(C)[C@H](NC(=O)c1ccc(F)cc1)C(=O)OCC(=O)NC(=O)c1cccn1C	15
CCOC(=O)c1cnc2ccc(OC)cc2c1NCc1ccccc1	1
Cc1cc(C(=O)CN2C(=O)NC3(CCCc4sccc43)C2=O)c(C)n1-c1ccc(Cl)cc1 (stereo unspecified)	13
O=C(CN1CCN(c2ccccn2)CC1)Nc1cccc(S(=O)(=O)N2CCCC2)c1	-3
COC(=O)/C=C1\SC(=Nc2ccccc2)NC1=O	18
Cc1ccccc1CNC(=O)c1ccc(Cl)c([N+](=O)[O-])c1	9
COc1ccc(NC(=O)CSc2nnc3ccc(-c4ccncc4)nn23)cc1OC	3
O=C(NCc1ccc2c(c1)OCO2)c1cc2ccccc2oc1=O	10
COc1ccccc1-c1cc(C(F)(F)F)nc(S(=O)(=O)CCCC(=O)Nc2cccnc2Cl)n1	18
Cc1ccnc(N2C3CCC2CC(O)(c2ccccc2)C3)n1 (stereo unspecified)	18
O=C1CN(C(=O)COC(=O)c2ccc(N3CCCCCC3)c([N+](=O)[O-])c2)c2ccccc2N1	23
CCCC(=O)NC(=S)Nc1ccc(CN2CCOCC2)cc1	12
CC(=O)N/C(=C\c1ccc(Br)s1)C(=O)O	1
Cc1ccc(Cl)cc1N1CCN(C(=O)CSc2ccsc2[N+](=O)[O-])CC1	12
C/C(=N\NC(=O)C(N)=O)c1ccc(O)cc1O	11
Cc1ccc(-n2c(SCC(=O)NNC(=S)Nc3ccccc3)nc3ccccc3c2=O)cc1	9
COc1ccccc1CNC(=O)C(=O)NCC1OCCN1C(=O)c1cccs1 (stereo unspecified)	0
Cc1nc(CN2CCCCC2)cc(=O)[nH]1	12
Cc1cc(C)c(NC(=S)NCC2CCN(C(C)c3ccccc3)C2)c(C)c1 (stereo unspecified)	11
O=C1OCCN/C1=C\C(=O)c1ccc(Cl)cc1	15
CCOc1c(O)ccc(C2NC(=O)NC(C)=C2C(=O)OC)c1[N+](=O)[O-] (stereo unspecified)	17
CCn1ccnc1CNC(=O)c1cc(COc2ccc(F)cc2F)on1	15
COC(=O)c1sc(NC(=S)NC(=O)c2cccc(C)c2)nc1C	11
Cc1ccc(C(=O)COC(=O)CNC(=O)c2cccs2)cc1C	7
Cn1cc(CN2CCN(Cc3ccc4c(c3)OCO4)CC2)c(-c2ccccc2F)n1	16
O=c1c2cc(NC(=S)NCc3ccccn3)ccc2nc2n1CCCCC2	0
Cc1ccc(-c2nnc(N)s2)cc1	11
CCOC(=O)c1cc2c(=O)n3ccccc3nc2n(CCCOC)c1=NC(=O)c1ccncc1	16
O=C(Nc1ccc(F)cc1F)c1c(C(F)(F)F)ccnc1Oc1ccccc1	8
Cn1c(CN2CCCC2)nc2cc(NC(=O)c3ccc(Cl)cc3)ccc21	21
CCCn1c(CCC(=O)O)ccc1-c1ccccc1	9
CN1C(=S)SC(C)(C)C1N(O)C(=O)Nc1ccc(Cl)cc1 (stereo unspecified)	9
CCCCNS(=O)(=O)c1ccc(OC)c(C)c1	20
CC(C)CCNC(=O)COC(=O)c1cc(Br)c(Br)s1	11
COc1ccc(Nc2nc(C)c(-c3ccccc3)s2)cc1	10
CN(C)C(=S)NC1CCS(=O)(=O)C1 (stereo unspecified)	5

# (continued)
SMILES	Calb biofilm kill
Cc1cccc(Nc2nnc(SCC(=O)Nc3cccc(S(=O)(=O)N4CCCCC4)c3)s2)c1	19
O=C(c1cccc(C(F)(F)F)c1)C1CCCN(Cc2cccn2-c2ccccn2)C1 (stereo unspecified)	10
OC1=C(O)c2nc3cc(C(F)(F)F)ccc3nc21	18
COC(=O)c1c(-c2ccccc2)c[nH]c1C	3
CCOc1cc(C2NC(=O)N(C)C(C)=C2[N+](=O)[O-])ccc1OC(C)=O (stereo unspecified)	3
CN(C)S(=O)(=O)c1ccc(NC(=O)c2ccc3ncsc3c2)cc1	6
CCCC1=C/C(=C/c2ccc(-c3ccccc3OC)o2)C(=O)O1	15
Cc1ccc2nc(SCC(=O)Nc3cccc(S(=O)(=O)NC4=NCCCCC4)c3)[nH]c2c1	18
CCc1oc2ccccc2c1C(=O)c1cc(Br)c(O)c(Br)c1	22&22
COc1ccc(C(=O)C2CCCN(C(=O)C3=CCCC3)C2)cc1OC (stereo unspecified)	17
CCN1CCN(c2cc(C)c3cc(NC(=O)c4cccc(OC)c4)ccc3n2)CC1	19
O=[N+]([O-])c1ccc(OCCCCN2CCCCC2)cc1	-4
COc1ccc(N2CCN(C(CNC(=O)C(=O)NCCC3=CCCCC3)c3ccco3)CC2)cc1 (stereo unspecified)	16
CCN(CC)C(=O)CSc1nc(N)c(-c2ccccc2)c(=O)[nH]1	3
O=[N+]([O-])c1ccccc1Oc1ccc(Cl)c2cccnc12	15
O=S(=O)(Nc1ncccn1)c1ccc(NC(=S)NCc2ccco2)cc1	12
Cc1cc(OCc2nc3ccccc3s2)ccc1N	14
COc1ccc(CC(=O)NC(C)C2COc3ccccc3O2)cc1OC (stereo unspecified)	32
Cc1onc(-c2c(Cl)cccc2Cl)c1C(=O)N1CCSCC1	14
COc1ccccc1NC(=S)N(Cc1ccccc1)Cc1cccnc1	11
CC(=O)NN1C(=O)c2ccc(Oc3ccc4c(c3)C(=O)N(NC(C)=O)C4=O)cc2C1=O	17
O=C(C1=NN[C@@H]2C(=O)N(c3ccccc3C(F)(F)F)C(=O)[C@H]12)C(c1ccccc1)c1ccccc1	18
NS(=O)(=O)c1ccc(NC(=O)COC(=O)c2cn(-c3ccccc3)nc2-c2ccccc2)cc1	13
COc1ccc(/C=C/C(=O)N2CCN(c3ccccc3)CC2)cc1S(=O)(=O)N1CCOCC1	4
Cc1ccc(-c2cc(C(=O)Nc3cc(C)on3)no2)cc1	18
CCCn1nnc(NC(=S)NC(=O)/C=C/c2ccco2)n1	30
Cc1nc(-c2ccccc2Cl)sc1C(=O)/C=C/N(C)C	-3
COc1ccc(NC(=O)NCCCN2CCN(c3ccccc3F)CC2)cc1	8
CCOc1ccc(C(=O)OCC(=O)NC(C)C)cc1	15
O=[N+]([O-])c1cccc(-c2n[nH]c(=S)n2Cc2ccccc2)c1	16

# Reprinted from above for reference:
SMILES	Calb biofilm kill
CCOc1ccc(C(=O)OCC(=O)NC(C)C)cc1	15
O=[N+]([O-])c1cccc(-c2n[nH]c(=S)n2Cc2ccccc2)c1	16

# (continued)
SMILES	Calb biofilm kill
Cc1ccc(C2=C/C(=C/c3cccs3)C(=O)O2)cc1	6
Cn1cnnc1SCC(=O)Nc1cc(S(=O)(=O)N2CCCCCC2)ccc1Cl	4
NCCc1c(-c2ccccc2)n(-c2ccccc2)c2ccccc12	13
Cc1noc(C)c1C(=O)OCC(=O)N(C)C1CCS(=O)(=O)C1 (stereo unspecified)	4
CC(C)Nc1cc(C(C)(C)C)nc2c(-c3ccccc3)cnn12	13
CN(CC(=O)NCc1ccccn1)S(=O)(=O)c1ccc2ccccc2c1	9
COc1cc(CNCc2ccccc2)cc(Cl)c1OC	11
CCOC(=O)C1(Cc2cccc(F)c2)CCN(Cc2c(C)nn(CC)c2C)CC1	18
Cc1ccc(Cl)c(NC(=O)CCl)c1Cl	19
CSc1nc2nc(-c3cccc(C(F)(F)F)c3)ccn2n1	15
COC(=O)Cc1ccc(OCC(=O)Nc2ccc(OC(F)(F)F)cc2)cc1	10
Cc1cc2ccccc2n2c(SCC(=O)Nc3ccc(S(=O)(=O)N4CCCCC4)cc3)nnc12	15
COc1cc(C(=O)Nc2ccc3c(c2)C(=O)c2ccccc2C3=O)cc(OC)c1OC	16
Brc1ccc(C2=CC(c3ccco3)n3nnnc3N2)cc1 (stereo unspecified)	23
Cc1cc(/C=N/NC(N)=S)c(C)n1-c1ccc(Br)cc1	8
Cc1cccc(C(=O)Oc2ccc(/C=N/NC(=O)c3ccccc3O)cc2)c1	11
CCC(C)(C)NC(=O)C(c1cccn1C)N(C(=O)Cn1nnc2ccccc21)c1ccc(OC)cc1OC (stereo unspecified)	16
COC(=O)CC(c1ccc(OC)c(OC)c1)c1ccc(OC)c(OC)c1	-5
ClCc1cc2ccccc2nc1Cl	25
C[C@@H](NC(=O)c1nc[nH]c1C(=O)N[C@@H](CCCCNC(=O)OC(C)(C)C)C(=O)OC(C)(C)C)c1ccccc1	18
CN(CCO)c1cnccn1	8
CCOC(=O)C(C)/C(C)=N/NC(=O)CCC(=O)Nc1cc(C)ccc1C (stereo unspecified)	13
CCN1/C(=C/C=C/c2oc3ccc4ccccc4c3[n+]2CC)Oc2ccc3ccccc3c21	24
CN(C)C(=O)CSc1nnc(Cc2ccc3c(c2)OCO3)o1	13
CC1(OC(=O)C2CCCC2)C(=O)C=C2C=C3CCCCN3C=C2C1=O (stereo unspecified)	16
FC(F)(F)c1cc(-c2ccccc2)nc2ncnn12	-6
CCCc1cc2c(cc1NC(=O)c1ccccc1F)OCO2	13
CCN(Cc1cn2cccnc2n1)C1CCCCC1	1
CCOC(=O)CC1COCCN1C(=O)CCc1nnc(-c2ccsc2)o1 (stereo unspecified)	-13
COCCN(C(=S)Nc1ccccc1OC)C(C)c1cccs1 (stereo unspecified)	14

# Looked up one by one from the list above, six records:
SMILES	Calb biofilm kill
CCN(Cc1cn2cccnc2n1)C1CCCCC1	1
Cc1cccc(C(=O)Oc2ccc(/C=N/NC(=O)c3ccccc3O)cc2)c1	11
COc1cc(CNCc2ccccc2)cc(Cl)c1OC	11
NCCc1c(-c2ccccc2)n(-c2ccccc2)c2ccccc12	13
CCN1/C(=C/C=C/c2oc3ccc4ccccc4c3[n+]2CC)Oc2ccc3ccccc3c21	24
CCC(C)(C)NC(=O)C(c1cccn1C)N(C(=O)Cn1nnc2ccccc21)c1ccc(OC)cc1OC (stereo unspecified)	16

# Continuation.
SMILES	Calb biofilm kill
COc1ccc(-n2c(SCC(=O)NCc3cccs3)nc3[nH]ncc3c2=O)cc1	5
NNc1ccc(S(=O)(=O)N2CCCCC2)cn1	13
C(=N/Nc1cc(N2CCOCC2)nc(N2CCOCC2)n1)/c1ccccc1	-3
COC(=O)c1ccccc1NC(=S)N(Cc1ccc2c(c1)OCO2)Cc1cc2cccc(C)c2[nH]c1=O	9
COc1ccc(CCNc2ccc(C(CC(N)=O)NC(=O)c3ccccc3)cc2[N+](=O)[O-])cc1 (stereo unspecified)	14
CCOC(=O)c1c(C)[nH]c(C(=O)CN2C(=O)NC(C)(CC(C)C)C2=O)c1C (stereo unspecified)	22
Cc1ccc(S(=O)(=O)N2CCCCC2)cc1NC(=O)COC(=O)c1cc[n+]([O-])cc1	16
Cc1ccc(NC(=O)CCSc2nnc(C)s2)cc1	5
O=C(NNC(=O)c1ccccc1-n1cccc1)c1ccc(F)cc1	6
N#Cc1sc2nc(C3CC3)cc(-c3ccccc3)c2c1N	9
CC(=O)n1cc([C@@H]2C=C(C(=O)N3CCN(Cc4ccccc4)CC3)O[C@H](OCc3ccc(CO)cc3)C2)c2ccccc21	14
CC12CC3CC(C)(C1)CC(C(=O)NCc1ccco1)(C3)C2	18

# Compound activity: PubChem BioAssay, PCMD
